Screening data as filed in PubChem.
Cruzain inh noDet – cruzain (T. cruzi) inhibition without detergent; P25779; purified cruzain, Z-FR-AMC fluorescence, no detergent; Potency, µM, for inactives: max response, negative = inhibition, most hits filed as inhibitors; 200,000 compounds, 2.3% hits; AID 1476;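 note: plate controls were enzyme without inhibitor for no effect and buffer without enzyme for full effect; nearly all actives have a fitted effect of over 40% in size; top concentration of the series not given in the record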
Target sequence (P25779 123-467 limits assumed): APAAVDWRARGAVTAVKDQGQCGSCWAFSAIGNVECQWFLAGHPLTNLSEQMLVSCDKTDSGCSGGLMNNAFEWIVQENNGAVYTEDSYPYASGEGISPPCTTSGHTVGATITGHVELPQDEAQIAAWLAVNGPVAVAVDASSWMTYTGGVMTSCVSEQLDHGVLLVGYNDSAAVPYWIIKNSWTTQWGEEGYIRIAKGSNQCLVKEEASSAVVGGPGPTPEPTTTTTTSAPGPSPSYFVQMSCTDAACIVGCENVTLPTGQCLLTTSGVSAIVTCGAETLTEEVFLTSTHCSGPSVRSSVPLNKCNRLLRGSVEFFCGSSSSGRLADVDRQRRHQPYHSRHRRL
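Purified cruzain at 1.5 nM, pre-incubated 15 min with compound at room temperature in 100 mM sodium acetate pH 5.5, 5 mM DTT, 0.00005% Triton X-100. Reaction started with 2 uM Z-FR-AMC; AMC fluorescence increase over 60 s gives rate.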
Lassa entry inh – blocks Lassa virus binding to or entry into cells; Lassa virus pseudotype entry inhibition, cell reporter; control for the full effect not named in the record; Potency, µM (top dose mostly 37.9 µM), for the others: at the top dose activity change, negative = inhibition, actives largely listed as inhibitors; 300,000 compounds, 1.2% hits; active means well fitted inhibition curve with a large enough effect; inconclusive means small, poorly fitted or top-dose-only effect, or effect the other way; inactive means flat fitted curve, though single readings scatter; tested in HEK293 cells; note: % is set by controls: 0 for no effect and ±100 for the full control effect; nearly all actives have a fitted effect of over 50% in size; luciferase read-out
RE007 growth inh – less growth of the S. pombe RE007 Vpr strain. Potency, µM (titrated, usually from 92.2 µM), for the others: top-dose activity change, negative = less growth. S. pombe RE007 Vpr strain, BacTiter-Glo ATP luminescence, 24 h; control for the full effect not named in the record. AID 651644. 360,000 compounds, 0.21% hits; active = well fitted falling curve with a large enough effect; inconclusive = small, poorly fitted or top-dose-only effect; inactive = no such curve, though single readings can be large or run the other way;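 note: % is set by controls: 0 for no effect and ±100 for the full control effect; nearly all actives have a fitted effect of over 50% in size; the assay follows cell death caused by Vpr and the record does not say whether a fall means rescue or toxicity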
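Fission yeast RE007 carrying one integrated HIV-1 vpr copy, seeded at OD 0.01 in PMG+AL medium with 23 nL pinned compound. Grown 24 h at 30 degrees; viability read by BacTiter-Glo luminescence after 5 min.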
2A StopGo – lowers the luciferase signal of an FMDV 2A StopGo reporter | human cells with a luciferase reporter of 2A StopGo recoding; control for the full effect not named in the record | Potency, µM (series often up to 57.9 µM), inactives show at the top dose signal change, negative = less light | 410,000 compounds, 1.2% hits; active = well fitted falling curve with a large enough effect; inconclusive = small, poorly fitted or top-dose-only effect; inactive = no such curve, though single readings can be large or run the other way; tested in HEK293T cells; note: % is set by controls: 0 for no effect and ±100 for the full control effect; nearly all actives have a fitted effect of over 45% in size; luciferase light after 4 h
Cruzain Triton – blocks cruzain activity in presence of Triton detergent; P25779; purified cruzain, Z-FR-AMC fluorescence, 0.01% Triton; Potency, µM, without a hit: max response, negative = inhibition, actives largely listed as inhibitors; 200,000 compounds, 0.43% hits;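 note: plate controls were neutral wells for no effect and buffer without enzyme for full effect; nearly all actives have a fitted effect of over 40% in size; top concentration of the series not given in the record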
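Z-FR-AMC hydrolysis (2 uM substrate) by cruzain (1.5 nM) monitored kinetically at ex 360/em 450 nm after 15 min room-temperature compound exposure; 0.01% Triton X-100, pH 5.5, 5 mM DTT.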
MARV entry inh – blocks Marburg virus binding to or entry into cells; Marburg virus pseudotyped entry inhibition, cell reporter; control for the full effect not named in the record; about a third of the inactives were read at about 46 µM; Potency, µM (series often up to 37.8 µM), without a hit: at the highest dose activity change, negative = inhibition, hits mostly inhibitors; 300,000 compounds, 1.8% hits; AID 540276; active = well fitted inhibition curve with a large enough effect; inconclusive = small, poorly fitted or top-dose-only effect, or effect the other way; inactive = flat fitted curve, though single readings scatter; tested in HEK293 cells; about a fifth of its hits are not listed in these tables; note: % is set by controls: 0 for no effect and ±100 for the full control effect; luciferase read-out
NS1 function inh – blocks influenza NS1 protein function | S. cerevisiae slowed by influenza A NS1, growth recovery by OD600 | 270,000 compounds, 0.4% hits | Potency, µM (highest dose often 46.1 µM), without a hit: at the top dose activity, positive = more growth; active means well fitted rising curve with a large enough effect; inconclusive means small, poorly fitted or top-dose-only effect; inactive means no such curve, though single readings can be large or run the other way; note: nearly all actives have a fitted effect of over 50% in size
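Recovery from NS1-induced slow growth read by OD600 in budding yeast switched to galactose assay medium (pH 6.0, -URA) at 1:100 dilution. Compound 23 nl per well; the matching strain lacking NS1 serves as control.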
SARS PLP yeast – SARS-CoV PLP inhibition in yeast; 330,000 compounds, 0.19% hits; Potency, µM (series often up to 32.9 µM), for the others: at the highest dose activity, positive = growth rescue; S. cerevisiae expressing SARS-CoV PLpro, growth rescue; control for the full effect not named in the record; active means well fitted rising curve with a large enough effect; inconclusive means small, poorly fitted or top-dose-only effect; inactive means no such curve, though single readings can be large or run the other way; note: 0% is about no effect; nearly all actives have a fitted effect of over 55% in size; growth read by luminescence after 48 h
Starred values were filed as active, the others as inactive; ? = inconclusive; nt = no result given; & = joins results of further samples; [ ] = dose if it differs, or a comment. Unless noted, calls come from the whole dose curve; as a rule, active = well fitted curve in the direction sought with a large enough effect; inconclusive = small, poorly fitted or top-dose-only effect, or another doubt; inactive = no such curve, though single readings can be large; an effect the other way counts as inactive or inconclusive. Potency is the fitted concentration of half-maximal effect.

SMILES | Cruzain inh noDet | Lassa entry inh | RE007 growth inh | 2A StopGo | Cruzain Triton | MARV entry inh | NS1 function inh | SARS PLP yeast
Cc1nnc(SCc2cccc(Oc3ccccc3)c2)n1N | 2% | 8% | 3% | 23% | 0.2% | ? | -5% | -8%
CN(C)S(=O)(=O)c1ccc(C(=O)Nc2cccnc2)cc1 | -2% | 5% | -12% | -18% | 4.2% | ? | -4% | -2%
CC(=O)NCCNC(=O)CCNC(=O)c1ccc(Cl)cc1 | -6% | -11% | -2% | -15% | 8.6% | 28%[46.1 µM] | 8% | 5%
Cc1cccc(CCNC(=O)c2nn(C)c3c2CSc2ccccc2-3)c1 | -3% | 8%[46.1 µM] | nt | -4% | -4.8% | -1%[46.1 µM] | nt | nt
Cc1ccc(NC(=O)CSc2nnc(-c3ccncc3)n2C)cc1C | -15% | 14% | 2% | 9% | -5.3% | 3% | -9% | 1%
COc1ccccc1OCCNC(=O)C1CC(=O)N(Cc2ccc(C)cc2)C1 (configuration not stated) | nt | 5% | 1% | 11% | nt | 20% | nt | -1%
CSCCC(NC(N)=O)C(=O)Nc1ccc(F)c(Cl)c1 (configuration not stated) | nt | -2% | -1% | -3% | nt | -2% | 1% | 0%
Cc1cc(C)c(OCCOCCN2CCCC2)c(C)c1 | nt | -1%[46.1 µM] | -16% | 2% | nt | ? | nt | nt
COc1ccc(-c2oc(NC(=O)CSc3nncn3C)c(C#N)c2-c2ccc(OC)cc2)cc1 | ? | -3% | -14% | -26% | -8.4% | ? | 1% | 0%
Cc1ccccc1NS(=O)(=O)c1ccc(Cl)cc1 | nt | 14% | 18% | -5% | nt | 2%[46.1 µM] | -9% | -2%
CC(C)(C)NC(=O)CN(C(=O)C(=O)Nc1ccc2c(c1)OCCO2)C1CC1 | nt | -7% | 10% | 4% | nt | 15%[46.1 µM] | -9% | -1%
C/C=C(\C)CN1CCCC(N(C)CCc2ccc(OC)c(OC)c2)C1 (configuration not stated) | nt | nt | -5% | -3% | nt | nt | 4% | 3%
CCCn1nc(C(=O)OCC(=O)Nc2cccc(OC)c2)c2ccccc2c1=O | nt | -7% | 1% | -13% | nt | -11%[46.1 µM] | -3% | 1%
CC(C)(C)OC(=O)N1CCC(C(=O)N[C@H](C(=O)O)c2ccccc2)(c2ccccc2)CC1 | nt | nt | 2% | -25% | nt | nt | 8% | 0%
COc1ccccc1C1CC(=O)NC(C)=C1C(=O)OCC1CCCO1 (configuration not stated) | 4% | -19% | 0% | -23% | 3.4% | -18%[46.1 µM] | 6% | 3%
CCn1cc(CCC(=O)NCc2ccc(C)cc2)c2ccccc21 | -1% | 15%[46.1 µM] | nt | -2% | -4.7% | nt | nt | nt
CCCSc1nc2sc3c(c2c(=O)n1-c1cccc(Br)c1)CC(C)(C)OC3 | -4% | ? | nt | -17% | -1.8% | 11%[46.1 µM] | nt | nt
CC(C)C(=O)NNC(=O)C1CC1(c1ccccc1)c1ccccc1 (configuration not stated) | nt | 6% | -3% | -1% | nt | ? | -1% | 2%
CC1CN(S(=O)(=O)c2cccc(C(=O)OCC(=O)c3cccs3)c2)CC(C)O1 (configuration not stated) | -4% | 2% | -4% | -10% | -2.7% | 0% | 3% | 0%
CCOc1cccc(C(=O)Nc2ccc(NC(=O)c3cc4ccccc4o3)c(OC)c2)c1 | nt | ? | 14% | -21% | nt | ? | 9% | -5%
CCOc1ccccc1N(C)C(=O)CCS(=O)(=O)c1ccc2c(c1)NC(=O)CO2 | nt | 6%[46.1 µM] | 17% | -19% | nt | 9%[46.1 µM] | 7% | 0%
Cc1ccccc1C(=O)OCC(=O)N(C)c1ccccc1 | nt | 8%[46.1 µM] | -1% | 57%[activator] | nt | 11%[46.1 µM] | -32% | 0%
Cc1ccc2[nH]c(=O)c(CN(Cc3ccccc3)Cc3nnnn3C3CCCC3)cc2c1 | 12% | -38% | -11% | 35%[activator] | -12% | 18µM* | -41% | -2%
COC(=O)c1ccccc1NC(=O)Nc1cccs1 | -24% | 0% | 2% | 24% | -6.6% | 16% | -1% | -14%
CSc1nc2c(c(=O)[nH]c(=O)n2C)n1Cc1ccccc1Cl | nt | nt | -2% | ? | nt | nt | -3% | 1%

3 of these compounds, reformatted.
| compound | Cruzain inh noDet | Lassa entry inh | RE007 growth inh | 2A StopGo | Cruzain Triton | MARV entry inh | NS1 function inh | SARS PLP yeast |
| --- | --- | --- | --- | --- | --- | --- | --- | --- |
| Cc1ccccc1NS(=O)(=O)c1ccc(Cl)cc1 | nt | 14% | 18% | -5% | nt | 2%[46.1 µM] | -9% | -2% |
| COc1ccccc1C1CC(=O)NC(C)=C1C(=O)OCC1CCCO1 (configuration not stated) | 4% | -19% | 0% | -23% | 3.4% | -18%[46.1 µM] | 6% | 3% |
| C/C=C(\C)CN1CCCC(N(C)CCc2ccc(OC)c(OC)c2)C1 (configuration not stated) | nt | nt | -5% | -3% | nt | nt | 4% | 3% |

Going on with the list.
SMILES | Cruzain inh noDet | Lassa entry inh | RE007 growth inh | 2A StopGo | Cruzain Triton | MARV entry inh | NS1 function inh | SARS PLP yeast
CC(C)c1c(O)nc(SCCN(C)C)[nH]c1=O | -3% | -11% | 6% | 15% | 5.3% | 2% | -7% | 5%
CCN(CC)/C(=N\S(=O)(=O)c1ccccc1C)c1ccccc1 | nt | nt | -1% | 11% | nt | nt | 0% | 12%
COC(=O)c1cccc(NC(=O)CSc2ncn[nH]2)c1 | -9% | 14% | -7% | 13% | 0.2% | 6%[46.1 µM] | 3% | 0%
COc1ccc(CCNS(=O)(=O)c2cccc(S(=O)(=O)N3CCCC3)c2)cc1OC | 0% | 14% | 2% | -18% | 1.1% | ? | -4% | 2%
O=C(CCCSc1nc2ccccc2[nH]1)NCc1ccc(Cl)cc1 | -1% | ? | -8% | ? | -9.3% | ? | -8% | 0%
CN1CCN(CC(O)COc2ccccc2)CC1 (configuration not stated) | nt | nt | 4% | 3% | nt | nt | 10% | 0%
O=C1OC(OC(=O)c2ccccc2Br)C(N2CCOCC2)=C1Cl (configuration not stated) | -21% | 18% | -4% | ? | -2.1% | ? | 1% | -4%
CCOc1cc(C2NC(=O)c3c(sc4c3CCN(C)C4)N2)ccc1OC(=O)c1ccc(F)cc1 (configuration not stated) | -5% | 19%[46.1 µM] | nt | -8% | -4.0% | 8%[46.1 µM] | nt | nt
Cn1cccc1Cc1nnc(SCC(=O)Nc2ccc3c(c2)OCO3)n1CCc1ccccc1 | ? | -27% | -4% | 0% | -4.0% | -15%&-15% | ? | -8%
O=C(Nc1ccc(N2C(=O)C3CCCCC3C2=O)cc1Cl)c1cccs1 (configuration not stated) | nt | 1%[46.1 µM] | 16% | 9% | nt | 12%[46.1 µM] | nt | -3%
CC1=C(C(=O)Nc2cc(Cl)ccc2C)C(c2ccccc2F)n2ncnc2N1 (configuration not stated) | 9% | -21%[46.1 µM] | nt | -20% | -2.8% | nt | nt | nt
CCCCCN(C(=O)COC(=O)CSc1ccc([N+](=O)[O-])cc1)c1c(N)n(CCCC)c(=O)[nH]c1=O | nt | -6% | 8% | -24% | nt | -4%[46.1 µM] | nt | -3%
C=C(Cl)COc1ccc2c(CC)cc(=O)oc2c1 | 10% | -17% | 5% | nt | -9.3% | -16% | -65% | -5%
NS(=O)(=O)c1ccc(NC(=O)c2ccccc2C(=O)N2CCCCC2)cc1 | -10% | -4% | -4% | -6% | 7.0% | 13% | -7% | 7%
Cc1cc(=O)oc2c(C)c(OCC(=O)NCc3ccccn3)ccc12 | nt | nt | -3% | 9% | nt | nt | 0% | 0%
COc1ccc(-c2onc(C)c2-c2cnn(-c3ccccc3)c2)c(O)c1 | nt | ? | -19% | -6% | nt | ? | nt | -1%
CCn1c(SCc2ccc(OC)c(F)c2)nc2ccccc2c1=O | nt | -8%[46.1 µM] | 13% | -20% | nt | ? | 1% | -2%
CCCn1c(O)c(N=NC(=O)CNC(=O)/C=C/c2ccc(OC)cc2)c2ccccc21 | nt | nt | 2% | 3% | nt | nt | 3% | -2%
O=C(Nc1ccc(Br)cn1)c1cccc(S(=O)(=O)N2CCCC2)c1 | nt | -22%[46.1 µM] | 2% | -18% | nt | ? | nt | 0%
O=C(CCCC(=O)N(CC(=O)NC1CCCCC1)Cc1ccccc1)Nc1ccccn1 | 10% | -12% | 2% | -11% | 1.8% | -18% | -1% | -2%
Cc1ccc(C(=O)Nc2nnc(-c3ccco3)o2)cc1 | 11% | ? | 19% | -22% | -2.9% | ? | -1% | -24%
Oc1ccc(-c2nc3ccc4ccccc4c3c3c2CCC3)cc1O | -17% | ? | 1% | 44%[activator] | -13% | ? | 9% | -53%
CC(=O)Nc1ccc(/C(C)=N/Nc2nc(Nc3cccc4ccccc34)nc(N3CCOCC3)n2)cc1 | ? | ? | 5% | 0% | -7.1% | 1.4µM* | 4.5µM* | 8%
O=C(/C=C/c1ccc(S(=O)(=O)N2CCOCC2)cc1)NCc1ccc(Cl)cc1 | 22% | -15% | -1% | -21% | -1.6% | -2% | 7% | -3%
O=C(Nc1nc(-c2ccccc2)cs1)C1c2ccccc2Oc2ccccc21 | 20µM* | 10% | 1% | ? | 4.6% | -15% | 2% | 5%
CCCCOc1ccc(-c2cc(C(F)(F)F)c(C#N)c(SCC(=O)O)n2)cc1 | nt | -2% | 1% | 11% | nt | -5%[46.1 µM] | nt | 3%
COC(=O)c1ccccc1NC(=O)Nc1nnc(N2CCC(C)CC2)s1 | ? | -21%[46.1 µM] | 5% | 3%&5% | -6.3%&0.1% | -1%[46.1 µM] | 2% | -8%
O=C(Nc1ccccc1F)C1CCCN(S(=O)(=O)c2ccc(-n3cnnn3)cc2)C1 (configuration not stated) | nt | -7%[46.1 µM] | 9% | 1% | nt | -11%[46.1 µM] | 5% | -1%
COC(=O)c1cccc(NCN2C(=O)c3ccccc3C2=O)c1 | -5% | -1% | -3% | 0% | -2.2% | -5% | -1% | -3%

Random draw from the library. Share with any hit: about 4.5%.
